# Bioassay records as filed in PubChem.
# MLL AF4-AF9 inh – inhibitors of AF4 peptide binding to AF9, primary screen, biochemical, AlphaScreen, biotin-AF4 peptide, FLAG-AF9, single point; AID 651704, 2012; 350,000 compounds, 0.47% hits; Protein AF-9 (Homo sapiens), P42568; inhibition, % at 10 µM;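 active = every replicate reaching a set inhibition limit, whatever the replicate mean, cut at about 25% in these data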;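 also: 0% = plate neutral control median and 100% = total signal loss; the record names both 10 and 1 µM as test concentration; the first replicate is given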
# Target sequence (P42568 whole entry, looked up): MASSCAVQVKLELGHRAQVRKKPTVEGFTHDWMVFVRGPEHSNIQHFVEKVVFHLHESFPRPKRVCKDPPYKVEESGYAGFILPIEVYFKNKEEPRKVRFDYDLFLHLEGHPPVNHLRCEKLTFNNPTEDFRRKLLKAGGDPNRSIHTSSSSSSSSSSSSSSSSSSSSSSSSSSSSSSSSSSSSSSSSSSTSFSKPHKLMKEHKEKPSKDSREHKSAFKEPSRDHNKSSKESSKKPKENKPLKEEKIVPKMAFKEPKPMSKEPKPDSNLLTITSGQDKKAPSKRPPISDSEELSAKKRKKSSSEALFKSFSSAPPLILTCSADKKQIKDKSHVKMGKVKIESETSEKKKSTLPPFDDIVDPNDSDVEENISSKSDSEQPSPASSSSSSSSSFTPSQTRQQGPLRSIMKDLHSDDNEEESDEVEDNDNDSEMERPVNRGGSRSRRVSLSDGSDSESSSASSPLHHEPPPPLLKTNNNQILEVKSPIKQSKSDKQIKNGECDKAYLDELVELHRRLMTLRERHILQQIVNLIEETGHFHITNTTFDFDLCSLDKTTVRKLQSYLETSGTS
# rRNA inh HTS – reduced GFP signal of wild-type E. coli, primary screen, bacterial rRNA inhibitor project, GFP/RFP fluorescence, OD600, single point | 350,000 compounds, 1.6% hits | GFP signal change (wild-type ribosome), % (no concentration beside the values) | E. coli WT GFP vs humanized-ribosome RFP mutants, 24 h; active compounds read low; DMSO median 0, no signal -100;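 active = significant combined selectivity score with lowered wild-type GFP, culture density cut under 30%, mutant RFP and density less affected; inactive = any of these conditions unmet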; also: one replicate is shown; some compounds called inactive have numbers as strong as hits
# rRNA inh HTS OD600 – recorded beside rRNA inh HTS, whose call it bears; OD600 change, %; measured here: OD600 growth;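 optical density of the mix in the first replicate; 0 = DMSO median and -100 = no signal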
# rRNA inh HTS RFP – also measured in rRNA inh HTS; calls as there; RFP signal change, %; measured here: RFP humanized mutant strains;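 first replicate; 0 = DMSO median and -100 = no signal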
# * marks the source's active call; other numbers are inactive results; & = joins results of further samples. A portion of the library, so the mix of outcomes need not match the whole.
SMILES	MLL AF4-AF9 inh	rRNA inh HTS	rRNA inh HTS OD600	rRNA inh HTS RFP
C[C@@H]1CN([C@@H](C)CO)C(=O)CCCn2cc(nn2)CO[C@H]1CN(C)Cc1ccc2c(c1)OCCN2C	1.4	0.2	-0.2	-2.0
C[C@H]1CN([C@@H](C)CO)C(=O)c2cccc(NC(=O)c3nc4ccccc4s3)c2O[C@@H]1CN(C)Cc1ccc2c(c1)OCO2	0.5	-0.7	5.7	-2.7
C/C=C/c1ccc2c(c1)O[C@H](CN(C)C(=O)Cc1cccnc1)[C@@H](C)CN([C@@H](C)CO)S2(=O)=O	0.0	4.4	10.1	-1.0
COCC(=O)N1CC2(C1)[C@@H](c1ccccc1)[C@@H](CO)N2Cc1ccccc1OC	0.6	0.3	-2.6	5.2
CCCC(=O)Nc1ccc2c(c1)C(=O)N(C)[C@H]1CC[C@H](CC(=O)NCc3cccc(F)c3)O[C@H]1CO2	-1.5	-2.2	-5.2	-4.1
CO[C@H]1CN(C)C(=O)c2cc(NC(=O)C3CC3)ccc2OC[C@H](C)N(Cc2cc(F)ccc2F)C[C@@H]1C	0.1	-1.0	3.8	-0.6
CCC(=O)N1[C@@H]2CN(C(=O)c3ccc4c(c3)OCO4)c3ccccc3[C@@H]2[C@@H]1CO	-0.1	3.7	2.8	-3.0
NCC[C@H]1CC[C@@H](NC(=O)Nc2ccc(F)cc2)[C@H](CO)O1	4.5	-1.0	0.3	-0.1
C[C@@H]1CN([C@H](C)CO)C(=O)c2cc(NC(=O)C3CCCCC3)ccc2O[C@H]1CN(C)C(=O)Nc1ccc(C(F)(F)F)cc1	-2.9	-5.7	-7.1	0.2
CC(C)CC#Cc1cnc2c(c1)C(=O)N([C@@H](C)CO)C[C@@H](C)[C@@H](CN(C)Cc1cccc(F)c1)O2	3.8	1.2	-5.4	3.5
CCC(=O)Nc1ccc2c(c1)C(=O)N(C)[C@@H]1CC[C@H](CC(=O)O)O[C@@H]1CO2	0.7	2.2	-2.4	-2.8
COc1cccc(-c2ccccc2[C@H]2[C@@H](C#N)N(C(=O)Cc3ccccc3)[C@H]2CO)c1	1.0	-12.1	-7.0	0.7
C[C@H](CO)N1C[C@H](C)[C@H](CN(C)Cc2cccnc2)Oc2cc(C3=CCCC3)ccc2S1(=O)=O	1.4	-2.1	-11.0	4.2
COc1ccc(NC(=O)Nc2ccc3c(c2)C(=O)N([C@H](C)CO)C[C@H](C)[C@@H](CN(C)Cc2ccncc2)O3)cc1	-5.0	-1.4	-1.9	1.2
CN(C)CC(=O)N[C@@H]1C=C[C@@H](CC(=O)O)O[C@@H]1CO	-4.8	-1.2	4.2	0.6
O=C1CCCCCC[C@@H](O)[C@H](O)C[C@H](c2ccccc2)O1	-1.9	0.7	-1.5	-3.8
CO[C@@H]1CC[C@H]2CCOc3c(C#N)cccc3C(=O)N(C)C[C@H](c3ccccc3)CC(=O)N(C)C[C@@H]1O2	-4.5	0.7	17.4	1.2
Cc1ccccc1-c1ccc2c(c1)O[C@H](CN(C)C(=O)C1CC1)[C@H](C)CN([C@@H](C)CO)S2(=O)=O	0.4	0.2	-6.6	0.7
O=C(C[C@@H]1CC[C@H](NC(=O)c2ccc3c(c2)OCO3)[C@H](CO)O1)NCc1ccc(F)cc1	0.3	-0.3	-5.3	-2.1
COCC(=O)Nc1ccc2c(c1)C(=O)N(C)[C@@H]1CC[C@H](CC(=O)NCCc3ccncc3)O[C@@H]1CO2	0.1	-0.8	-6.4	-2.7
CCS(=O)(=O)Nc1ccc2c(c1)C(=O)N(C)[C@H]1CC[C@H](CC(=O)N[C@H]3CCN(Cc4ccccc4)C3)O[C@@H]1CO2	-3.5	5.7	1.9	-3.7
Cc1noc(C)c1S(=O)(=O)N(C)C[C@H]1Oc2ccc(NC(=O)Nc3ccc(F)cc3)cc2CC(=O)N([C@@H](C)CO)C[C@@H]1C	2.2	-0.1	-10.9	3.5
CC(C)NC(=O)Nc1ccc2c(c1)C(=O)N([C@@H](C)CO)C[C@@H](C)[C@@H](CN(C)C(=O)Nc1ccc(C(F)(F)F)cc1)O2	-0.4	-33.4	-54.0	-5.6
Cc1ccc(C(O)c2ncc(-c3ccccc3Cl)[nH]2)c(C)c1 (configuration not stated)	3.2	-3.2	-20.5	-7.8
C[C@H](CO)N1C[C@H](C)[C@@H](CN(C)C(=O)Nc2ccccc2F)Oc2ncc(Br)cc2C1=O	0.7&-4.2	6.4&3.6	-3.1&6.3	-0.1&-1.1
C(=C\c1ccccc1)/CN1CCN(C(c2ccccc2)c2nnnn2-c2ccc3c(c2)OCCO3)CC1 (configuration not stated)	12.4	-12.0	-37.9	12.1
C/C=C/c1ccc2c(c1)O[C@@H](CN(C)S(=O)(=O)c1ccccc1)[C@@H](C)CN([C@@H](C)CO)S2(=O)=O	5.4	-2.5	-20.4	1.4
O=C(O)C[C@H]1CC[C@@H]2[C@H](COC[C@@H](O)CN2S(=O)(=O)c2ccc(F)cc2)O1	-12.9	7.2	-2.0	0.8
C[C@@H]1CCCCO[C@H](CN(C)C(=O)Nc2ccc(F)cc2)[C@H](C)CN([C@H](C)CO)C(=O)c2cc(NS(=O)(=O)c3ccccc3)ccc2O1	1.8	0.6	0.0	0.7
Cc1cc(C(=O)Nc2cccc3c2O[C@H](CN(C)S(=O)(=O)c2cn(C)cn2)[C@H](C)CN([C@H](C)CO)C3=O)n(C)n1	-2.0	1.8	8.5	3.1

# Shown with values ahead of the structure: part of the list above
MLL AF4-AF9 inh	rRNA inh HTS	rRNA inh HTS OD600	rRNA inh HTS RFP	SMILES
12.4	-12.0	-37.9	12.1	C(=C\c1ccccc1)/CN1CCN(C(c2ccccc2)c2nnnn2-c2ccc3c(c2)OCCO3)CC1 (configuration not stated)
-1.5	-2.2	-5.2	-4.1	CCCC(=O)Nc1ccc2c(c1)C(=O)N(C)[C@H]1CC[C@H](CC(=O)NCc3cccc(F)c3)O[C@H]1CO2
-0.1	3.7	2.8	-3.0	CCC(=O)N1[C@@H]2CN(C(=O)c3ccc4c(c3)OCO4)c3ccccc3[C@@H]2[C@@H]1CO

# Remaining list, next part
# Below each SMILES – MLL AF4-AF9 inh, rRNA inh HTS, rRNA inh HTS OD600, rRNA inh HTS RFP
CO[C@@H]1CN(C)C(=O)c2ccc(NC(=O)Nc3cccc(F)c3)cc2OC[C@H](C)N(C(C)=O)C[C@@H]1C
  4.9, -4.2, -9.7, 1.1
COc1ccccc1CNC(=O)C[C@@H]1CC[C@H]2[C@@H](COC[C@@H](O)CN2Cc2cccc(-c3ccncc3)c2)O1
  1.8, -6.9, -16.9, -2.4
O=c1[nH]cnc2c1ncn2C1CCC(CO)O1 (configuration not stated)
  -1.9, -6.5, -11.4, -6.6
O=C(c1cccnc1)N1CC(=O)N2[C@H](CO)[C@H](c3ccc(-c4cccnc4)cc3)[C@H]2C1
  -0.1, 2.8, -2.3, 1.2
CCCCC1OC(CCc2ccccc2)CC2=C1C(=O)OC(C)(C)O2 (configuration not stated)
  -6.4, 0.4, 2.3, -2.3
O=C(C[C@@H]1CC[C@@H](NC(=O)Nc2ccccc2F)[C@H](CO)O1)NCc1ccc(F)cc1
  -3.4, 3.6, 14.8, -3.3
COc1ccc(S(=O)(=O)N(C)C[C@H]2OCCCC[C@H](C)Oc3ccc(NC(=O)c4ccncc4)cc3C(=O)N([C@H](C)CO)C[C@H]2C)cc1
  -1.2, 0.9, -4.3, 2.6
CC1(C(=O)NS(=O)(=O)c2ccc(Cl)cc2)CCN1C(=O)c1ccc(C2CCCCC2)cc1 (configuration not stated)
  -8.4, -15.6, -41.5, -2.2
COc1ccc(-c2ccc([C@H]3[C@H](C#N)N(C(=O)c4cccnc4)[C@H]3CO)cc2)cc1
  -1.1, -7.3, 2.7, 0.0
C[C@H](CO)N1C[C@H](C)[C@H](CN(C)C(=O)C2CCC2)Oc2ncc(C#Cc3cccc(F)c3)cc2C1=O
  -1.2, 3.4, 1.3, 6.9
CCC(=O)N1[C@@H]2Cn3c(ccc(-c4cncnc4)c3=O)[C@H]1[C@@H](C(=O)N1CCc3ccccc3C1)[C@@H]2CO
  -2.0, 2.9, 5.8, -1.3
CCNC(=O)C[C@@H]1CC[C@@H]2[C@@H](COc3ccc(NC(=O)Cc4cccs4)cc3C(=O)N2C)O1
  0.3, 2.5, 6.3, 0.3
COC(=O)Cc1nnn2c1[C@H](C)[C@@H](OC)c1ccc(C(F)(F)F)cc1-2
  0.6, -0.1, -1.2, -0.5
COc1cc(CC(=O)OCC(=O)NC2CCCC2)cc(OC)c1OC
  -3.8, 6.3, 14.0, 0.6
O=S1(=O)CC(N2CC=CC2)CN1Cc1ccccc1 (configuration not stated)
  3.7, -1.8, 5.2, -2.1
C[C@@H]1CN([C@H](C)CO)C(=O)c2cc(NC(=O)Cc3ccccc3)ccc2O[C@@H]1CN(C)C(=O)Nc1ccccc1
  -3.0, 2.7, 5.7, 0.2
CNC[C@H]1OCCCC[C@@H](C)Oc2ccc(NC(=O)CCC(F)(F)F)cc2C(=O)N([C@H](C)CO)C[C@@H]1C
  -7.2, 5.3, 15.8, 1.7
COCCNC(=O)C1(C)CCN(C(=O)c2cc(-c3ccccc3)cs2)C1 (configuration not stated)
  -3.7, -3.4, 2.8, -1.0
CO[C@H]1CN(C)C(=O)c2ccc(NC(=O)c3cc(C)on3)cc2OC[C@@H](C)N(CC2CC2)C[C@H]1C
  1.7, 3.8, -0.9, 4.8
COc1ccc2c3c([nH]c2c1)[C@H](CO)N(C(=O)C1CC1)CC31CN(Cc2nccs2)C1
  1.8, -0.3, 1.9, 1.8
Cc1noc(C)c1NC(=O)N(C)C[C@@H]1OCCCC[C@H](C)Oc2ccc(NC(=O)Nc3ccc4c(c3)OCO4)cc2C(=O)N([C@H](C)CO)C[C@@H]1C
  2.5, 2.3, -0.3, -0.7
Cc1ccccc1S(=O)(=O)N1CC[C@@H]2[C@@H](CO)Nc3ccc(-c4ccccc4)cc3[C@@H]21
  1.6, -10.8, -34.2, 20.1
O=C(C[C@@H]1C=C[C@H](NC(=O)Nc2ccc3c(c2)OCO3)[C@@H](CO)O1)NCc1ccccc1
  -1.3, 2.2, 1.1, -1.7
COc1ccc(S(=O)(=O)N(C)C[C@@H]2Oc3c(NC(=O)c4ccc(-c5nccs5)cc4)cccc3C(=O)N([C@@H](C)CO)C[C@@H]2C)cc1
  0.1, -2.9, -0.7, 2.3
C[C@@H]1CN([C@H](C)CO)C(=O)c2cc(C#CC3CC3)cnc2O[C@@H]1CN(C)S(=O)(=O)c1cccc(F)c1
  0.0, 0.3, 4.6, 0.7
CCCC(=O)Nc1ccc2c(c1)OC[C@H](C)N(CCC)C[C@H](C)[C@H](OC)CN(C)C2=O
  -4.5, -1.5, -0.7, -1.6
C[C@H](CO)N1C[C@H](C)[C@@H](CN(C)CC2CCOCC2)Oc2ncc(C#Cc3ccncc3)cc2C1=O
  -6.8, 4.0, 4.1, -4.3
C[C@@H]1CN([C@H](C)CO)C(=O)c2cc(NS(C)(=O)=O)ccc2O[C@@H](C)CCCCO[C@H]1CN(C)C(=O)Nc1ccccc1
  0.4, 2.6, 2.8, -2.6
C[C@H]1CN([C@@H](C)CO)C(=O)c2cc(-c3ccc(F)cc3)cnc2O[C@H]1CN(C)Cc1ccc(C(=O)O)cc1
  -3.8, -4.9, -3.5, -6.2
O=C(Nc1cc(F)ccc1F)N1CC(=O)N2[C@H](CO)[C@@H](c3ccc(-c4ccc(F)cc4)cc3)[C@@H]2C1
  -1.2, -22.2, -46.2, 30.2

# Continuation:
# Below each SMILES – MLL AF4-AF9 inh, rRNA inh HTS, rRNA inh HTS OD600, rRNA inh HTS RFP
CCC(=O)N(C)C[C@@H]1Oc2cc(C#CC(C)C)ccc2S(=O)(=O)N([C@H](C)CO)C[C@@H]1C
  -0.1, -0.7, 2.7, -0.2
O=C(NC1CCCCC1)C(c1ccc(-c2ccccc2)cc1)n1c(=O)c(-c2ccco2)nc2ccccc21 (configuration not stated)
  3.6, -9.2, -8.9, 17.6
CNC(=O)C[C@@H]1CC[C@@H]2[C@H](COc3ccc(NS(=O)(=O)c4cccc(F)c4)cc3C(=O)N2C)O1
  -0.9, 0.5, 0.0, -1.0
O=C(NCc1ccccc1)C(c1cc2ccccc2o1)n1c(=O)c(-c2ccco2)nc2ccccc21 (configuration not stated)
  -0.1, -0.1, 0.7, 2.4
CNC[C@H]1Oc2ccc(N(C)C)cc2C(=O)N([C@H](C)CO)C[C@@H]1C
  -8.2, 1.6, 9.7, -1.6
O=C(C[C@@H]1C[C@@H]2c3cc(NC(=O)C4CCC4)ccc3O[C@@H]2[C@H](CO)O1)NC1CCCC1
  0.7, -1.3, -7.2, -1.9
C[C@@H]1CN([C@@H](C)CO)C(=O)Cc2cc(NC(=O)CCCCCC(=O)Nc3ccccc3N)ccc2O[C@@H]1CN(C)S(=O)(=O)c1ccc(F)cc1
  1.3, 0.2, 5.5, 2.8
Cc1noc(C)c1S(=O)(=O)Nc1ccc2c(c1)CC(=O)N([C@H](C)CO)C[C@H](C)[C@@H](CN(C)Cc1ccc(C(=O)Nc3ccccc3N)cc1)O2
  -1.4, -6.2, -4.5, -1.9
Cc1nc(N2[C@@H](C#N)[C@@H](c3ccccc3)[C@@H]2CO)sc1C
  0.3, 4.0, 10.0, -2.6
